High-throughput results: PubChem, National Center for Advancing Translational Sciences (NCATS)
VDR inh = inhibitors of human vitamin D receptor; AID 504847; 0.93% of 400,000 active; P11473; VDR-SRC2-3 peptide fluorescence polarization, 2 h; Potency, µM, without a hit: max response, negative = inhibition, actives largely listed as inhibitors; active means well fitted inhibition curve with a large enough effect; inconclusive means small, poorly fitted or top-dose-only effect, or another doubt; inactive means no such curve, though single readings can be large or run the other way; further: series mostly up to about 120 µM
Target sequence (P11473 whole entry, looked up): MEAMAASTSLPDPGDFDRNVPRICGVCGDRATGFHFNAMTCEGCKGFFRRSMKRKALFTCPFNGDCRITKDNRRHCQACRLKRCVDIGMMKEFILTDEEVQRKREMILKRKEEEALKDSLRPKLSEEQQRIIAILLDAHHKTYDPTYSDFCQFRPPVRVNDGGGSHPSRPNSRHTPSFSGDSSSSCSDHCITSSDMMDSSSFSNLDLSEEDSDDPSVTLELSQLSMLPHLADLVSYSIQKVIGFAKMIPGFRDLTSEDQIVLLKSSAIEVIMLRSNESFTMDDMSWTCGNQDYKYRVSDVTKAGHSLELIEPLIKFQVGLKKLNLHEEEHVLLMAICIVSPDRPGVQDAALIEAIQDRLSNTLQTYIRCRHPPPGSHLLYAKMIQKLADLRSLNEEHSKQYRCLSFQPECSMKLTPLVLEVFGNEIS
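Reagent solutions, kept cold and dark, are dispensed first; compounds are then pinned in at 23 nl, plates briefly spun, and incubated 2 h at ambient temperature. Inhibition of VDR–SRC2-3 peptide binding is read by fluorescence polarization.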
Numbers without * were called inactive; ? = inconclusive; & = joins results of further samples. On the % scale 0 is the no-effect control and ±100 the full control effect; potency means the concentration at half of the fitted maximal effect.

SMILES	VDR inh
O=C1N[C@H](Cc2ccccc2)C(=O)N1Cc1cccc2ccccc12	0%
COc1ccc2c(c1)c1ncn(CCc3ccccc3)c(=O)c1n2C	-1%
COc1ccc(NC(=S)NCCN2CCC(C)CC2)cc1Cl	?
CC1C(=O)N2CCCc3cc(NC(=O)C(=O)NCc4cccnc4)cc1c32 (stereo not drawn)	14%
CN(C)S(=O)(=O)c1ccc(NC(=O)COC(=O)c2n[nH]c3ccccc23)cc1	18%
COc1ccccc1CN1CC(C(=O)NCc2ncccc2C)CCC1=O (stereo not drawn)	12%
CC(C)Cn1nc(NC(=O)c2cccc(Cl)c2)c2cc3ccccc3nc21	23%
S=c1[nH]nc(CSCCOc2ccc(Cl)cc2Cl)o1	-23%
CSCC[C@H](NS(=O)(=O)c1ccc(C)cc1)C(=O)N1CCC(C(=O)N[C@@H](Cc2ccccc2)C(=O)O)CC1	-21%
Cc1cc(C)cc(-n2ccnc(NCc3ccc(F)cc3)c2=O)c1	1%
CCc1cc2c(C)cc(C)cc2nc1SCC(=O)Nc1cc(C)on1	-6%
COc1ccc2c(c1)cc(CNc1ccc(OC)c(OC)c1)c(=O)n2CC(=O)Nc1ccccc1C	2%
Cc1cc(NC(=O)CSc2nc3c(c(-c4cccnc4)c2C#N)CCC3)no1	24%
O=[N+]([O-])c1ccc(N2CCCCC2)cc1	-1%
COCCC1CCCCN1C(=O)c1cc(COc2ccc(C)nc2)on1 (stereo not drawn)	8%
C[C@H]1CN([C@@H](C)CO)C(=O)c2cc(NS(=O)(=O)c3ccc(F)cc3)ccc2O[C@H]1CN(C)S(=O)(=O)c1cn(C)cn1	4%
O=C(O)C1CCCN1S(=O)(=O)c1ccccc1 (stereo not drawn)	0%
O=C(NCc1ccco1)c1ccc2c(c1)N(Cc1ccccc1F)C(=O)c1ccccc1S2(=O)=O	-3%
CNS(=O)(=O)c1cccc(C(=O)OCC(=O)c2ccc(S(=O)(=O)N3CCCCC3)cc2)c1	0%
CCOC(=O)N1CCN(Cc2nnc(-c3ccccc3C)o2)CC1	-5%
C/C(=N\Nc1nc(-c2ccccc2O)nc2ccccc12)c1ccccc1	-1%
Cc1ccccc1-c1cc(C(=O)NCc2ccco2)nn1CC1CC(c2cccc([N+](=O)[O-])c2)=NO1 (stereo not drawn)	-15%
CN(Cc1ccccc1)C(=O)c1ccc(S(=O)(=O)N(C)c2ccccc2)cc1	-17%
COc1ccc(C(=O)c2ccc(Cl)cc2)cc1	2%
COCOc1ccc(/C=C2/Oc3cc(OCOC)cc(OCOC)c3C2=O)c(OCOC)c1	-15%
Continued.
SMILES	VDR inh
CCc1ccc(NC(=O)c2ccc3nc(N)sc3c2)cc1	8%
OCCC1CN(Cc2c(F)cccc2Cl)CCN1C1CCCCC1 (stereo not drawn)	9%
COc1ccc(N2CCN(C(=O)COC(=O)Cc3cccc(OC)c3)CC2)cc1	0%
O=C(Nc1cccc(Cn2cccn2)c1)c1cc2c(s1)CCCC2	11%
Cc1ccc(/C=N\NC(=O)Cc2noc3ccccc23)cc1	22%
CS(=O)(=O)N(CC(=O)Nc1cccc(F)c1)Cc1ccccc1	2%
c1cnc(-c2noc(CN3CCN(C4C5CC6CC(C5)CC4C6)CC3)n2)cn1 (stereo not drawn)	15%
Cc1c2cnn(CC(=O)NCCN3CCOCC3)c(=O)c2c(C)n1Cc1ccc(F)cc1	-9%
O=C(CCOc1ccccc1)Nc1ccnn1C1CCN(Cc2ccc(O)cc2)CC1	14%
COc1ccc2c(c1)cc(C)c1nnc(SCC(=O)N3CCN(C(=O)c4ccco4)CC3)n12	-4%
Nc1nc2ccc(NC(=O)c3ccco3)cc2s1	3%
COc1ccc(C(=O)c2c(NC(C)=O)sc3c2CCN(C(=O)OC(C)(C)C)C3)cc1	12%
Cc1ccc(S(=O)(=O)Nc2ccccc2C(=O)N2CCCC2)cc1	2%
CC(C)Nc1oc(-c2ccccc2)nc1-c1cccc2ccccc12	0%
COc1cc2cc(Oc3ccc4ccc(=O)oc4c3)c(=O)oc2cc1O[C@@H]1O[C@H](CO)[C@@H](O)[C@H](O)[C@H]1O	-28%
Cc1ccc(Cn2ccsc2=NC(=O)COC(=O)C(C)C)cc1	-2%
Cc1c(-n2c(SC(C)C(=O)NC(N)=O)nc3ccccc3c2=O)c(=O)n(-c2ccccc2)n1C (stereo not drawn)	3%
CCn1c(CSc2nc3ccccc3s2)nnc1SCC(=O)NCC(=O)OC	-3%
COc1ccc(/C=C/C(=O)OCC(=O)Nc2cccc(C(C)=O)c2)cc1	-8%
CCOC(=O)CC(=O)CSc1nc(C)cc(C)c1C#N	10%
CCCCOCCCNC(=O)N[C@@H](CC(C)C)C(=O)O	2%
COc1cccc(CN2CCCN(S(=O)(=O)c3ccc(Br)cc3)CC2)c1	7%
O=C(OCc1ccccc1)N(CCF)c1cn(Cc2ccccc2)c(=O)n(Cc2ccccc2)c1=O	-8%
O=C(Nc1ccc2nc(-c3ccc(Br)o3)[nH]c2c1)c1cccs1	-13%
CC(=O)c1ccc(Nc2nc(-c3cccnc3)cs2)cc1	5%

In the list so far, two have a nitro group on carbon.
SMILES	VDR inh
O=[N+]([O-])c1ccc(N2CCCCC2)cc1	-1%
Cc1ccccc1-c1cc(C(=O)NCc2ccco2)nn1CC1CC(c2cccc([N+](=O)[O-])c2)=NO1 (stereo not drawn)	-15%

(next part)
SMILES	VDR inh
CC1CCN(C(=O)CCC(=O)Nc2nnc(C(F)(F)F)s2)CC1	-5%
COc1ccc(C(=O)NCc2nnc(SCC(=O)NCc3ccco3)o2)cc1OC	0%
COc1ccc(CNCCC(c2ccccc2)c2ccc3c(c2)OCO3)cc1 (stereo not drawn)	-5%&11%
Cc1ccc(S(=O)(=O)Nc2cc(C(F)(F)F)ccc2N2CCOCC2)cc1	-18%
Cc1ccc(-n2c(N)c(C(N)=O)sc2=S)cc1	71µM*
CCNc1nc2nc3ccc(C)cn3c(=O)c2cc1C(=O)NCC1CCCO1 (stereo not drawn)	-16%
COc1cccc(N2CCN(C(=O)c3cnc4c(C)cccn4c3=O)CC2)c1	7%
C#CCn1c(O)c(N=NC(=O)CNC(=O)c2cccnc2)c2ccccc21	-9%
Cc1ccc(S(=O)(=O)CCC(=O)N2CCN(c3nc4c(C)c(Cl)ccc4s3)CC2)cc1	3%
CCN(CC)C(=O)Oc1ccc(OC(=O)N(CC)CC)cc1	-19%
Cc1ccc(-n2ncc3c(=O)n(CC(=O)NCC4CCCO4)cnc32)cc1 (stereo not drawn)	20%
CNCc1ccccc1OCc1ccccc1F	-6%
CCOC(=O)N1CCC(N2C(=O)c3cc(C(=O)NC4CCCCC4)ccc3C2O)CC1 (stereo not drawn)	-9%
Cc1cc(C)c(S(=O)(=O)c2ccccc2)c(OC(=O)c2c(Cl)cc(Cl)cc2Cl)n1	-1%
Cc1cccc(NC(=O)c2sc3ncnc(N(C)C4CCCCC4)c3c2C)c1C	8%
CN(Cc1nc(-c2ccncc2)no1)S(=O)(=O)c1ccc(Br)cc1	10%
CCN(CC)S(=O)(=O)c1ccc(NN)nc1	?
NC(=O)NC(CC(=O)NCCc1ccc(S(N)(=O)=O)cc1)c1ccc(Cl)cc1 (stereo not drawn)	?
CC(C)(C)C1CCc2nc(NC(=O)COc3ccccc3[N+](=O)[O-])sc2C1 (stereo not drawn)	0%
Cc1sc2ncn(CC(=O)Nc3ccc(F)cc3Cl)c(=O)c2c1S(=O)(=O)N1CCN(c2ncccn2)CC1	-25%
O=[N+]([O-])c1ccc(NCCNS(=O)(=O)c2ccccc2)cc1	-6%
CC1CCCC(NC(=O)c2cccc(S(=O)(=O)NCc3ccccc3)c2)C1C (stereo not drawn)	0%
COc1ccc(S(=O)(=O)Nc2ccc(S(=O)(=O)N3CCCC3)cc2)cc1	7%
C/C(CC1CC(COCCC(C)C)OC1=O)=N\NC(N)=S (stereo not drawn)	3%
Cc1cccc(CC2CC(=O)N(C3CCCCC3)C2=O)c1 (stereo not drawn)	-11%

Six neighbouring compounds from above, for reference:
SMILES	VDR inh
Cc1sc2ncn(CC(=O)Nc3ccc(F)cc3Cl)c(=O)c2c1S(=O)(=O)N1CCN(c2ncccn2)CC1	-25%
O=[N+]([O-])c1ccc(NCCNS(=O)(=O)c2ccccc2)cc1	-6%
CC1CCCC(NC(=O)c2cccc(S(=O)(=O)NCc3ccccc3)c2)C1C (stereo not drawn)	0%
COc1ccc(S(=O)(=O)Nc2ccc(S(=O)(=O)N3CCCC3)cc2)cc1	7%
C/C(CC1CC(COCCC(C)C)OC1=O)=N\NC(N)=S (stereo not drawn)	3%
Cc1cccc(CC2CC(=O)N(C3CCCCC3)C2=O)c1 (stereo not drawn)	-11%

Filtered by structure, the compounds so far containing bromine
SMILES	VDR inh
COc1cccc(CN2CCCN(S(=O)(=O)c3ccc(Br)cc3)CC2)c1	7%
O=C(Nc1ccc2nc(-c3ccc(Br)o3)[nH]c2c1)c1cccs1	-13%
CN(Cc1nc(-c2ccncc2)no1)S(=O)(=O)c1ccc(Br)cc1	10%

(list continues)
SMILES	VDR inh
O=C(Nc1nc(-c2ccc(-c3ccccc3)cc2)cs1)c1cnccn1	-12%
O=C(NCCc1ccccc1)c1ccc2nc(CCc3ccccc3)oc2c1	3%
C/C(Cn1nnc2ccccc21)=N/OC(=O)c1c(F)cccc1F	8%
CCCC12CN3CC(C)(CN(C1)C3c1ccc3c(c1)OCO3)C2=O (stereo not drawn)	3%
COC(=O)C1=C(C)NC(C)=C(C(=O)OC)C1C(=O)OC1CCCCC1=O (stereo not drawn)	-2%&-4%
O=C(Nc1nnc(S(=O)(=O)N2CCOCC2)s1)c1ccccc1Br	0%
COC1=C(Nc2ccccc2)C(=O)c2ccccc2C1=O	45µM*
Cn1c(=O)c(C(=O)NNC(=O)c2ccccc2Cl)c(O)c2ccccc21	2%
COc1ccc(C(=O)N2CCCC(Nc3ccc(F)c(F)c3)C2)c(OC)n1 (stereo not drawn)	-11%
O=c1cc(-c2ccccc2)nc2nc(COc3ccccc3)[nH]n12	9%
C=CCN1C(=O)C(CC(=O)Nc2ccccc2F)S/C1=N\c1nccs1 (stereo not drawn)	3%
CN(C)/C=C/C(=O)/C=C/c1cn(-c2ncc(C(F)(F)F)cc2Cl)c2ccccc12	0%
Clc1cncc(Cl)c1N/N=C/c1ccncc1	-18%
Nc1nc2c(ncn2[C@@H]2O[C@H](COP(=O)(O)OP(=O)(O)O)[C@@H](O)[C@H]2O)c(=O)[nH]1	-4%
C=CC1CN(CC(=O)OC)S(=O)(=O)c2ccccc21 (stereo not drawn)	-16%&3%
COc1cccc(S(=O)(=O)NCc2ccc(C(=O)Nc3ccc(Cl)c(Cl)c3)cc2)c1	-2%
Cc1ccc(NC(=O)c2oc3ccccc3c2NC(=O)c2ccccc2C)cc1	0%
COc1ccc(CNC(=O)C2CCN(S(=O)(=O)c3ccc4c(c3)C(C)(C)C(=O)N4C)CC2)cc1	-13%
CC(C)Cn1c(=O)c2ccccc2n2c(CCC(=O)NCc3ccccc3Cl)nnc12	13%
COC(=O)C1=C(C)N(CC2CC2)C(=O)N[C@H]1CCc1ccccc1	-4%
c1cnn(-c2cc(N3CCOCC3)ncn2)c1	8%
COC1=CC(=O)C=C(OC)C1=O	22µM*
CNc1nc(N/N=C/c2ccc([N+](=O)[O-])cc2)nc(Nc2ccccc2)n1	?
CCCCOc1ccc(C(=O)N(Cc2ccco2)C2CCS(=O)(=O)C2)cc1 (stereo not drawn)	-23%
O=C1C2CCCN2C(=S)N1c1cc(Cl)ccc1Cl (stereo not drawn)	12%
Continuation.
SMILES	VDR inh
CC(=O)N1c2ccc(S(=O)(=O)NCCC(=O)Nc3cccc(Cl)c3)cc2CC1C (stereo not drawn)	0%
COc1ccc(OCc2nnc(NC(=O)Nc3ccc(F)cc3)s2)cc1	-26%
CCCCCN(C(=O)CCC(=O)OC(C)C(=O)NCc1ccccc1)c1c(N)n(CCCC)c(=O)[nH]c1=O (stereo not drawn)	-7%
CCOc1cc2c(C#N)c(N3CCOCC3)nc(N)c2c(N)n1	9%
O=S(=O)(c1cc(F)ccc1F)N1CCC2(CC1)OCCN2S(=O)(=O)c1cccs1	4%
CCOC(=O)C1=NN(C(=O)Cc2ccccc2)C(O)(C(C)(C)C)C1 (stereo not drawn)	-8%
CCn1cc(C(=S)N2CCC(C(N)=O)CC2)c2ccccc21	16%
O=C(CN1CCN(S(=O)(=O)c2ccc(Cl)cc2)CC1)Nc1ccc(N2CCOCC2)cc1	-6%
O=c1[nH]c(CN2CCN(c3ncccn3)CC2)nc2c(Br)cc(Br)cc12	-4%
O=C(COc1ccccc1[N+](=O)[O-])N(Cc1ccco1)c1ccccn1	1%
COCCNC(=O)Nc1ccc2nc(-c3ccco3)c(-c3ccco3)nc2c1	79µM*
Cc1cc(C)c2c(n1)SCC(=O)N2CC(=O)Nc1ccccc1Cl	-8%
COC(=O)c1ccccc1C[C@]1(C(=O)OC)C=C[C@H](C)[C@@H](c2ccccc2)N1C(=O)C(F)(F)F	-1%
C/C(=N\NC(=O)CSc1nc2ccccc2[nH]1)c1ccncc1	-9%
CC(=O)/C=C/n1c(=S)oc2ccccc21	?
CCO/C(C)=N/n1c2nc3ccccc3nc2c2c(=O)n(C3CCCC3)c(C)nc21	-11%
CC1CN(C(=O)C(C)N2C(=O)c3ccccc3C2=O)CC(C)O1 (stereo not drawn)	10%
Cc1cc(Br)ccc1NC(=O)c1sc2ncn(CC(=O)N3CCN(c4ccccn4)CC3)c(=O)c2c1C	13%
O=c1[nH]nc(Br)c(=O)n1C(c1ccccc1)c1ccccc1	3%
CCCSc1nnc2[nH]c(=O)cc(C)n12	18%
CCC(=O)OCC(=O)Nc1ccc(OC)cc1[N+](=O)[O-]	6%

3 entries out of the list above, arranged by their value in VDR inh, rising.
SMILES	VDR inh
COC1=CC(=O)C=C(OC)C1=O	22µM*
COC1=C(Nc2ccccc2)C(=O)c2ccccc2C1=O	45µM*
COCCNC(=O)Nc1ccc2nc(-c3ccco3)c(-c3ccco3)nc2c1	79µM*

Only part of the results is shown; the hit share may differ from the screen's.
